eIF4H inh: inhibitors of RNA binding by human eIF4H | hit rate 0.94% among 290,000 | eIF4H fluorescence polarization binding assay | inhibition, % at 35 µM | Q15056 | AID 2012;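 active = 50% or more with normal probe brightness, or confirmed in later tests; about a fifth of its hits are not listed in these tables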;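 note: calls also rest on retests at 20 µM and on dose response follow-up; 0% = protein and probe with vehicle and 100% = probe without protein; strong numbers were not always called active; many hits fall short of the cut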
PABP polyA inh: PABP-poly(A) binding inhibition | PABP-poly(A) RNA binding, fluorescence polarization | AID 2014 | hit rate 1% among 290,000 | inhibition, % at 35 µM;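 active = 50% or more with normal probe brightness, or confirmed in later tests; about a fifth of its hits are not listed in these tables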;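 note: calls also rest on retests at 20 µM and on dose response follow-up; controls were probe without protein and protein plus probe with vehicle; some compounds called inactive have numbers as strong as hits; many hits fall short of the cut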
Target sequence (P11940 whole entry, looked up): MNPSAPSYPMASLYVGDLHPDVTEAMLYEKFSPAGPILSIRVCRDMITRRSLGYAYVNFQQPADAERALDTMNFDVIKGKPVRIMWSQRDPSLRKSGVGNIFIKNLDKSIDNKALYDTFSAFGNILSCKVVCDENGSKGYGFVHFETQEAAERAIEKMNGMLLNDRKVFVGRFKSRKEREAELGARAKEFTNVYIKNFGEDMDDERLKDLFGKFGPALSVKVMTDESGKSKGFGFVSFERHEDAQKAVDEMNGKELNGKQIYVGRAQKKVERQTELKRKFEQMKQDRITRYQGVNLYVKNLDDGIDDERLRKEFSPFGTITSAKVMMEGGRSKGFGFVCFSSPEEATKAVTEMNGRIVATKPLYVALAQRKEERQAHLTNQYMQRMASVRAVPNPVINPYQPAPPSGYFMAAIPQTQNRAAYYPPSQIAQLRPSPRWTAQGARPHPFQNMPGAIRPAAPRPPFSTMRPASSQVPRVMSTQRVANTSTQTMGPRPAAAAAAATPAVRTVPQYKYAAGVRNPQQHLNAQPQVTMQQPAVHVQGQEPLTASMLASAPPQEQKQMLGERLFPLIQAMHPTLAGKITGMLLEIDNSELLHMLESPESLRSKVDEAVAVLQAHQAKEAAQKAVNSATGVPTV
CSC inhib: blocks cancer stem cells; inhibition, % at 7.5 µM; AID 2717; cancer stem cell-like cells viability, luminescence; hit rate 1.1% among 300,000;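 active = mean at 75% or more and at least half the replicates too; tested in HMLE shEcad cells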;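 note: 0% = median of negative and 100% = median of positive control wells; the first replicate is given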
MT1-MMP act inh: inhibitors of human MT1-MMP activation; P50281; HT1080 RFP-PRO-GFP cells, GFP/RFP ratio fluorescence, overnight; percent of plate control window, DMSO zero; GFP/RFP ratio change, % at 20 µM; hit rate 0.061% among 360,000;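 active = GFP/RFP ratio change of at least 30% with cell ATP level not reduced by more than half and red fluorescence within 50% of control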; note: strong numbers were not always called active
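Compound: 20 µM single dose, 1% DMSO / System: HT1080 RFP-PRO-GFP cells / Controls: DMSO and RFP-L50D-GFP cell wells / Read-out basis: GFP/RFP fluorescence ratio / Schedule: overnight compound exposure at 37 °C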
UUG fidelity: alters start codon recognition fidelity in yeast. S. cerevisiae UUG-firefly luciferase reporter, luminescence/redox ratio. activity score, % at 18.7 µM. hit rate 0.13% among 350,000. AID 602363;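 active = replicate mean at a twofold rise or more, about +100% in these data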;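 note: firefly luciferase made from a UUG start codon reports start codon fidelity; reporter light over untreated wells divided by growth signal over untreated wells; some hits fall short of that in this replicate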
HIV Env fusion: inhibitors of HIV Env-mediated cell fusion. HeLa-JRFL Env/CEM21 cell fusion, luciferase. inhibition, % at 12.3 µM. hit rate 1.1% among 360,000;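 active = mean replicate inhibition score of at least 50 and every replicate individually at or above 50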;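 note: 0% = plate neutral controls and 100% = maraviroc near 300 nM; one replicate is shown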
Rce1 inh: inhibitors of yeast Ras-converting enzyme | hit rate 0.27% among 290,000 | AID 2563 | yeast membranes, quenched prenylated peptide cleavage fluorescence | calls only;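 active = fall in fluorescence gain of 50% or more versus controls, with final raw signal at or below 3038400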;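 note: plate controls were neutral control wells for no effect and wells lacking membranes for full effect; tested at 10 µM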
Target sequence (Q03530 whole entry, looked up): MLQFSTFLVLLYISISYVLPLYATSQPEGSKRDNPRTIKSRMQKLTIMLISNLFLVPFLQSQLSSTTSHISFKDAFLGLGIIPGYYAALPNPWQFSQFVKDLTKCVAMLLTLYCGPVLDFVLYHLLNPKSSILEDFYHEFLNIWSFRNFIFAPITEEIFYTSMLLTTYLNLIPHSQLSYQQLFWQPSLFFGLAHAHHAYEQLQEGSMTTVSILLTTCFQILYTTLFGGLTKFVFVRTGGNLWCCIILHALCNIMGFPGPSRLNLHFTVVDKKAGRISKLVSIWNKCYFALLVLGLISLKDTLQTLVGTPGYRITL
MT1-MMP act inh RFP: recorded beside MT1-MMP act inh, whose call it bears; RFP signal change, %; measured here: RFP expression control read;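 0 = vehicle wells; hits needed this value within 50% of zero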
* hit, by the source's call; i = inactive; / = not tested or not shown. An excerpt; rates above refer to the full screens.

SMILES	eIF4H inh	PABP polyA inh	CSC inhib	MT1-MMP act inh	MT1-MMP act inh RFP	UUG fidelity	HIV Env fusion	Rce1 inh
Cc1ccc(S(=O)(=O)N2CC=C(C(=O)NC3CCCC3)CC2)cc1	-3	-4	8	2	-1	-3	-3	i
Cc1ccc2nc(N(CCN(C)C)C(=O)c3ccc4c(c3)OCCO4)sc2c1	-7	-14	-4	3	5	-9	-17	i
COc1cccc(C(=O)Nc2cccc(C(=O)NC3=NN(c4c(Cl)cc(Cl)cc4Cl)C(=O)C3)c2)c1	48	34	27	-3	-4	-6	-220	/
CCCc1ccc(Oc2cn[nH]c2-c2ccc(O)c(C)c2O)cc1	-6	4	123*	-9	-18	-6	/	i
COc1ccc(C(=O)Nc2ccc3c(c2)Cc2ccccc2-3)cc1	-4	-5	11	6	-5	-19	/	i
COc1cc(NC(=O)C2C3C=CC(C3)C2C(=O)O)c(OC)cc1Cl (centres undefined)	7	8	19	4	2	-8	/	i
COc1ccc(CC(=O)N/N=C(\C)CC(=O)Nc2ccc(N(C)C)cc2)cc1OC	3	0	25	0	4	/	6	i
CCc1nc2c(OCc3ccc(C(F)(F)F)cc3)cccn2c1N(C)C(=O)c1ccc(C)cc1	/	/	/	1	3	-23	57*	/
CCCOc1ccc(OCCCCNC(C)CC)cc1 (centres undefined)	16	26	-2	-4	-8	/	-52	i
CC(c1n[nH]c(=S)n1-c1ccccc1)N1CCCCC1 (centres undefined)	-6	-1	9	-1	4	/	2	i
COc1ccc(/C=C/C(=O)c2ccc(OC)cc2OC)cc1	0	10	-7	-3	0	-16	/	i
COc1ccc(C)cc1NC(=O)C1CCN(S(=O)(=O)c2ccc3c(c2)C(C)(C)C(=O)N3C)CC1	-10	-7	17	4	-2	-12	5	i
CCOC(=O)c1cc(-c2ccccc2)n(CCC(=O)N2CCN(c3ccc(OC)cc3)CC2)c1C	-4	-2	-24	1	-5	-14	31	i
Cc1nc2ccc(S(=O)(=O)N(C)CC(=O)NCc3ccc(N(C)C)cc3)cc2s1	/	/	-2	-3	0	-4	14	i
Cc1ccccc1Nc1nc(N)nc(COC(=O)CCS(=O)(=O)c2ccc(Cl)cc2)n1	/	/	/	1	0	-13	14	/
CCCCN(C)C(=O)C1CCN(Cc2ccccn2)CC1	4	9	/	-7	1	-13	/	/
CC1Sc2ccc(S(=O)(=O)CCC(=O)N3CCc4ccccc43)cc2NC1=O (centres undefined)	4	8	-1	-1	3	-1	8	i
Cn1c(=O)[nH]c(=O)c2c1nc(OC(=O)c1ccccc1)n2CC(O)COc1ccccc1 (centres undefined)	-6	2	1	2	4	-5	/	i
CCOC(=O)c1cnc2c(Cl)cc(Cl)cc2c1NCCCN1CCOCC1	27	3	-6	-8	-5	-11	4	i
CCOC(=O)c1cccc(NC(=O)CCn2c(=O)oc3ccccc32)c1	-9	-10	-2	0	-3	-11	2	i
COc1cccc(NC(=O)NC2(C(F)(F)F)Oc3ccccc3O2)c1	2	12	-20	-2	-10	-4	36	i
O=C(CN1CCN(Cc2ccccc2)CC1)NCC1COc2ccccc2O1 (centres undefined)	5	9	-10	2	-2	-14	-53	i
Clc1ccccc1C1=CC(c2ccco2)n2nnnc2N1 (centres undefined)	2	0	-5	-1	0	/	-6	i
Cc1ccc(S(=O)(=O)Oc2ccccc2N2C(=O)C3C4CCC(C4)C3C2=O)cc1 (centres undefined)	-1	1	0	-5	2	-18	27	/
CCC(CC)C(=O)OCC(=O)Nc1cccc([N+](=O)[O-])c1	-4	-14	1	0	0	7	3	i

The listing continues:
SMILES	eIF4H inh	PABP polyA inh	CSC inhib	MT1-MMP act inh	MT1-MMP act inh RFP	UUG fidelity	HIV Env fusion	Rce1 inh
O=C(Oc1cccc(-n2cnnn2)c1)c1ccco1	-8	-11	3	-2	0	/	/	i
COc1ccc(-c2ccc(CN3C(C)C(=O)N(Cc4cn(CCC5OCCO5)nn4)CCS3(=O)=O)cc2)cn1 (centres undefined)	/	/	/	-1	-9	-7	16	/
COc1ccc(C(C(=O)NCC2CCCO2)N(C(=O)CNC(=O)c2ccco2)c2ccccc2)cc1OC (centres undefined)	-8	-1	1	-1	1	7	-16	i
Cc1ccc(OCC(=O)NCCO)cc1C	-7	0	-4	2	2	-6	/	i
CN(CC1CCOCC1)C(=O)CC1C(=O)NCCN1C/C=C/c1ccccc1 (centres undefined)	8	5	-11	-19	-7	/	-59	i
Cc1ccc(-c2nc(SC(C)C(=O)N3CCCC3)n[nH]2)cc1 (centres undefined)	/	/	-4	-4	-6	-17	-1	i
Cc1ccc(C(=O)NCc2nnc(SCC(=O)Nc3sc4c(c3C#N)CCCC4)n2C)cc1	-8	6	-10	-4	-4	-13	/	i
COc1ccc([C@@H]2COc3c(ccc4c3C=CC(C)(C)O4)C2)c(OC)c1	/	/	-17	0	-4	-6	/	i
CCCCN=C1NC(=O)C(CC(=O)Nc2ccc(Cl)cc2)S1 (centres undefined)	-8	-15	14	-7	0	-8	43	i
COc1ccc(S(=O)(=O)N2CCC(C(=O)N3CCc4ccccc4C3)CC2)cc1OC	0	-3	/	5	-8	5	-1	i
Cc1ccc(Cl)cc1N(CC(=O)NCc1ccccc1)S(C)(=O)=O	-4	10	-15	-2	1	6	-73	i
CC(C)CN1C(=O)c2ccc(NC(=O)C3CC3)cc2C1=O	-9	-10	-14	0	1	-2	8	i
O=c1[nH]c(-c2ccc(-c3cccc(Cl)c3)o2)nc2ccccc12	/	/	6	4	5	-21	-89	/
CCOC(=O)c1cnc(SSc2ncc(C(=O)OCC)c(N)n2)nc1N	-12	2	-10	0	-3	-2	-36	i
C=CCN1C(=O)C2(OCCCO2)c2cccc(C)c21	-2	0	9	1	3	-15	9	i
O=C(Cn1cnc2c(OCc3ccccc3)ncnc21)NCCN1CCOCC1	/	/	/	5	4	6	-38	/
COc1ccc(NC(=O)c2ccc(OC)cc2)cc1	5	-8	1	4	-8	-22	-212	i
COc1ccccc1NC(=O)COc1ccc(C(=O)NCC2CCCO2)cc1OC (centres undefined)	/	/	-9	4	0	-15	/	/
COc1ccc(S(=O)(=O)NCC2CCCN(C(=O)c3cccs3)C2)cc1 (centres undefined)	0	-8	-14	2	2	/	14	i
Cc1ccc(S(=O)(=O)N(C)C)cc1NC(=O)CN1C(=O)NC(Cc2ccccc2)C1=O (centres undefined)	/	/	-4	5	-1	-11	/	/
C/C(=N\NC(=O)c1ccccc1F)c1ccc2c(c1)Nc1ccccc1S2	2	5	38	8	3	/	-60	i
CN(Cc1ccccc1F)C(=O)CCCNC(=O)c1ccc(Cl)cc1	6	-3	-8	2	4	7	14	i
Cc1cc(C(=O)NCc2ccc3c(c2)OCO3)c(C)o1	-15	8	-8	2	2	/	8	i
O=C(NCc1ccccc1)C(=O)NCC(c1ccco1)N1CCOCC1 (centres undefined)	-2	-4	-2	5	1	/	/	i
CCN(CC)CCNC(=O)c1ccc(NC(=O)c2ccc3c(c2)CCC3)cc1	-16	-4	6	5	3	-1	8	i

More results
SMILES	eIF4H inh	PABP polyA inh	CSC inhib	MT1-MMP act inh	MT1-MMP act inh RFP	UUG fidelity	HIV Env fusion	Rce1 inh
COCCN1C(=O)CC(NNC(=O)c2ccc(S(=O)(=O)N3CCCC3)cc2)C1=O (centres undefined)	-2	2	9	0	6	/	13	i
O=C(O)c1cn[nH]c1-n1cnnn1	5	-1	-14	5	4	-24	-25	i
COc1ccc(C(=O)Nc2cccnc2)cc1OC	-4	-14	-14	-4	-4	-20	/	/
O=C(CCCc1ccccc1)NCc1ccccn1	1	-10	-1	-4	-1	-30	/	i
CS(=O)(=O)N(CC(=O)NCc1ccccc1)Cc1ccc(Cl)cc1	-1	4	/	-3	-2	-1	/	i
COc1ccc(C(=O)NNC(=O)CSc2nnc(C(C)C)n2C)cc1	7	14	-1	0	4	5	5	i
CC(C)(Oc1ccc(Cl)cc1)C(=O)N(Cc1ccccc1)c1ccccn1	-11	-8	2	-7	-13	/	26	i
CC(C)Cc1nc2sc3c(c2c(=O)n1N)CC(C)(C)OC3	0	-11	1	-1	-6	-7	1	i
CCCc1nc2ccc(C)cn2c1Cc1ccsc1	/	/	/	-2	2	17	0	/
COc1ccc(NC(=O)c2ccccc2Cl)c(NC(=O)c2ccco2)c1	-7	-10	/	-1	-1	-3	-1	i
CSc1ccccc1NC(=O)C1CC(c2ccccc2Cl)=NO1 (centres undefined)	2	3	-25	2	-2	-5	-1	i
Cc1ccc2[nH]c(=O)c3cc(C(=O)N(C)Cc4ccco4)sc3c2c1	10	15	1	3	-1	-5	-44	i
CC(OC(=O)c1cccs1)C(=O)NCc1ccccc1 (centres undefined)	-6	-1	4	-3	-3	3	13	/
Cc1ccc(C2CC(C(F)F)n3ncc(C(=O)Nc4c(C)nn(Cc5c(F)cccc5Cl)c4C)c3N2)cc1 (centres undefined)	-6	-1	23	0	-2	-11	8	i
Cc1ccc(NC(=O)COc2ccc(/C=N/NC(=O)CSCc3ccccc3)cc2)cc1	-4	-7	27	0	3	-14	-63	i
CC(=O)c1ccc(NC(=O)C(C)Oc2ccc(N(C)S(=O)(=O)c3ccc(C)cc3)cc2)cc1 (centres undefined)	/	/	-8	3	-5	0	-8	/
C/C(=N/OC(=O)c1c(F)cccc1F)c1nccs1	11	-3	-13	3	10	-49	-20	i
O=C(CS(=O)(=O)c1ccccc1Cl)N1CCOCC1	-1	13	6	-2	0	-20	9	i
COc1ccc(OCc2cc(C(=O)NCC3(C)COC3)no2)c(Cl)c1	-2	-5	6	1	1	-11	/	i

14 structures out of the list, sorted by heavy-atom count, largest number first:
SMILES	eIF4H inh	PABP polyA inh	CSC inhib	MT1-MMP act inh	MT1-MMP act inh RFP	UUG fidelity	HIV Env fusion	Rce1 inh
Cc1ccc(C2CC(C(F)F)n3ncc(C(=O)Nc4c(C)nn(Cc5c(F)cccc5Cl)c4C)c3N2)cc1 (centres undefined)	-6	-1	23	0	-2	-11	8	i
CC(=O)c1ccc(NC(=O)C(C)Oc2ccc(N(C)S(=O)(=O)c3ccc(C)cc3)cc2)cc1 (centres undefined)	/	/	-8	3	-5	0	-8	/
Cc1ccc(NC(=O)COc2ccc(/C=N/NC(=O)CSCc3ccccc3)cc2)cc1	-4	-7	27	0	3	-14	-63	i
COCCN1C(=O)CC(NNC(=O)c2ccc(S(=O)(=O)N3CCCC3)cc2)C1=O (centres undefined)	-2	2	9	0	6	/	13	i
CCN(CC)CCNC(=O)c1ccc(NC(=O)c2ccc3c(c2)CCC3)cc1	-16	-4	6	5	3	-1	8	i
CC(C)(Oc1ccc(Cl)cc1)C(=O)N(Cc1ccccc1)c1ccccn1	-11	-8	2	-7	-13	/	26	i
COc1ccc(NC(=O)c2ccccc2Cl)c(NC(=O)c2ccco2)c1	-7	-10	/	-1	-1	-3	-1	i
COc1ccc(OCc2cc(C(=O)NCC3(C)COC3)no2)c(Cl)c1	-2	-5	6	1	1	-11	/	i
CS(=O)(=O)N(CC(=O)NCc1ccccc1)Cc1ccc(Cl)cc1	-1	4	/	-3	-2	-1	/	i
CSc1ccccc1NC(=O)C1CC(c2ccccc2Cl)=NO1 (centres undefined)	2	3	-25	2	-2	-5	-1	i
CC(C)Cc1nc2sc3c(c2c(=O)n1N)CC(C)(C)OC3	0	-11	1	-1	-6	-7	1	i
CC(OC(=O)c1cccs1)C(=O)NCc1ccccc1 (centres undefined)	-6	-1	4	-3	-3	3	13	/
C/C(=N/OC(=O)c1c(F)cccc1F)c1nccs1	11	-3	-13	3	10	-49	-20	i
O=C(O)c1cn[nH]c1-n1cnnn1	5	-1	-14	5	4	-24	-25	i
